Screening data from PubChem BioAssay.
TSHR ag – activates the human thyroid stimulating hormone receptor. Potency, µM (titrated, usually from 57.1 µM), for the others: top-dose activation, most hits filed as activators. P16473. 73,000 tested, 0.48% active. HEK293-CNG-TSHR cells (CNG channel as cAMP sensor), membrane potential dye, cAMP; active = well fitted activation curve of enough size with the parental cells flat; inconclusive = any curve in the parental cells; inactive = parental cells flat and receptor cells flat or falling; further: potency means the concentration at half of the fitted maximal effect; % of control where 0% means no effect; weak receptor curves with flat parental cells got no call and are not listed
Target sequence (P16473 whole entry, looked up): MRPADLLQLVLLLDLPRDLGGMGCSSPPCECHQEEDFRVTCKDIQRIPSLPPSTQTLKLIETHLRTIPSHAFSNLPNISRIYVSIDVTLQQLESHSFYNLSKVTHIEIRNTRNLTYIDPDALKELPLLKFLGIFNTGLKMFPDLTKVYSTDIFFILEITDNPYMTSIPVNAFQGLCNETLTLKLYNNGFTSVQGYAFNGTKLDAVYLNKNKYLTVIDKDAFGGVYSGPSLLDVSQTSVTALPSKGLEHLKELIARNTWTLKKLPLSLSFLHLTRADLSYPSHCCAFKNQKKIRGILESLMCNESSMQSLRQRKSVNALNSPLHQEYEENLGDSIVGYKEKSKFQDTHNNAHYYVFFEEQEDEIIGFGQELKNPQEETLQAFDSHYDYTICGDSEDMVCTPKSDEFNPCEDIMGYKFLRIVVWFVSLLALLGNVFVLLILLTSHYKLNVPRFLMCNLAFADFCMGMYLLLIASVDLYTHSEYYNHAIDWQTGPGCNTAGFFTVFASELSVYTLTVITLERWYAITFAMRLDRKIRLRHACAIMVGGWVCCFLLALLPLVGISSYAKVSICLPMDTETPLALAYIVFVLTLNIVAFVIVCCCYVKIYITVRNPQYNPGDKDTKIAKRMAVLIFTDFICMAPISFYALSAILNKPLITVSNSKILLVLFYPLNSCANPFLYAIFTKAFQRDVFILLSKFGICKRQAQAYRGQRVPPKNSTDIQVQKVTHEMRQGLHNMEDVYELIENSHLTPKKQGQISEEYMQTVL
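HEK 293 cells stably expressing TSHR and a modified CNG channel, with CNG-only parental cells as counterscreen, were preloaded 60 min at room temperature with membrane potential dye containing 100 uM RO 20-1724. Compound exposure was 30 min, and depolarization was read as fluorescence at 590 nm.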
AID923 – qHTS Assay for Allosteric/Competitive Inhibitors of Caspase-1: Spectroscopic Profiling in AFC Spectral Region; 75,000 tested, 1.1% active; Potency, µM (top dose mostly 57.5 µM), inactives show at the highest dose fluorescence increase, hits mostly activators; compound fluorescence, AFC spectral region (405/520 nm); almost no hit is shown here; active means well fitted activation curve with a large enough effect; inconclusive means small, poorly fitted or top-dose-only effect;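 further: potency means the concentration at half of the fitted maximal effect; 0% is about no effect; scaled to a free AFC standard on each plate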
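Titrations up to 57 uM read every 20 sec for 3 min (405/520 nm) with 50 nM caspase 1 and 5 uM Ac-WEHD-AFC, pH 7.5 HEPES buffer. Fluorescence-vs-time intercept gave baseline, scaled against on-plate AFC standard.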
A488 fluor – A488 region autofluorescence | compound autofluorescence, A488 spectral region, dye equivalency; stronger effect = higher value | max dye equivalency, M | 59,000 tested, 0.1% active; active = above 10 nM dye equivalent; inconclusive = 1 to 10 nM; inactive = 1 nM or less; about half of its hits are not listed in these tables;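 further: highest value over a series up to 38 µM; compound alone in buffer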
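Compounds pin-transferred into 100 mM Tris buffer, pH 8.0, incubated 15 min at room temperature, then imaged with 480 nm excitation/540 nm emission filters. Fluorescence converted to Alexa 488 dye-equivalent concentration via an on-plate six-point A488 standard curve.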
Resorufin fluor – compound fluoresces in the resorufin spectral region. Compound fluorescence, resorufin region 547/598 nm, buffer; stronger effect = higher value. max dye-equivalent concentration, M. 59,000 tested, 0.04% active; active = above 10 nM dye equivalent; inconclusive = 1 to 10 nM; inactive = 1 nM or less; a few of its hits are not listed in these tables; further: highest value over a series up to 38 µM
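Compounds in 100 mM Tris buffer, pH 8.0, incubated 15 min at room temperature, then read with 547 nm excitation and 598 nm emission filters. Fluorescence was converted to dye-equivalent concentration using an on-plate six-point resorufin standard curve.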
A647 fluor – compound autofluorescence in A647 spectral region; Compound fluorescence, A647 channel (570/671 nm), Tris buffer; max dye-equivalent concentration, M; 59,000 tested, under 10 active; active means above 1 µM dye equivalent; inconclusive means 0.1 to 1 µM; inactive means 0.1 µM or less;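 further: values scaled relative to a standard on each plate; highest value over a series up to 38 µM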
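Tris 100 mM pH 8.0; cpd + A647 stds pin-transferred; 15 min RT; CCD imager, ex 570/em 671. Output = A647-equivalent conc. per cpd conc.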
An asterisk follows results filed as active; i = inactive; ? = inconclusive; . = not tested or not shown; & = joins results of further samples; [ ] = another dose, or the depositor's remark.

SMILES,A488 fluor,AID923,Resorufin fluor,TSHR ag,A647 fluor
CC1CN(S(=O)(=O)c2ccc(NC(=O)CCN3C(=O)c4ccccc4C3=O)cc2)CC(C)O1 (stereo not drawn),i,-0.6%,i,-2%,8.7e-09
COC(=O)c1ccccc1NC(=O)C1CCCN(S(=O)(=O)c2ccc(F)cc2)C1 (stereo not drawn),i,-0.9%,i,?,1.7e-08
CC(C)C(c1nnnn1C(C)(C)C)N1CCN(c2cccc(Cl)c2)CC1 (stereo not drawn),i,-0.2%,i,6%,4e-08
COc1cccc(NC2c3ccccc3C(=O)N2Cc2ccco2)c1 (stereo not drawn),.,1.2%,.,19%,.
c1ccc(-c2cn3nc(-c4ccccc4)sc3n2)cc1,.,1.5%,.,2%,.
CCOc1ccc(C2CC(c3ccccc3C)n3nc(N)nc3N2)cc1 (stereo not drawn),.,-1.3%,.,25%,.
COc1ccccc1N1CCN(C2=NS(=O)(=O)c3ccccc32)CC1,i,-0.1%,i,3%,1.9e-08
C/C(Cl)=C\Cn1c(Nc2cccc(C)c2)nc2c1c(=O)n(C)c(=O)n2C,i,-3.1%,i,-41%[inhibitor],4e-08
Cc1cc(CN2CCCCC2)c(O)c(CN2CCCCC2)c1,i,-1.9%[11.5 µM],i,9%[11.4 µM],1e-09
Nc1nc(-c2ccco2)nn1C(=O)CCc1ccccc1,i,-1.7%,i,-1%,1.9e-08
CCC(C)n1[nH]c(=O)c2c(C)cc(C)nc21 (stereo not drawn),i,-0.1%,i,-7%,3.8e-08
CCOC(=O)c1[nH]c(C)c(/C(O)=C2\C(=O)C(=O)N(CCCN3CCOCC3)C2c2cccnc2)c1C (stereo not drawn),i,-1.0%,i,5%,3.6e-09
O=C(NCCSCc1ccco1)Nc1ccc(Cl)cc1,i,1.5%,i,-5%,4.3e-09
CN1C(=O)C2(N=c3ccccc3=N2)c2ccccc21,i,.,i,.,?
O=C(CSc1nnnn1-c1ccc2c(c1)OCCO2)Nc1nc2c(s1)CCCC2,i,-0.9%,i,14%,1.2e-08
CC(=O)Nc1ccc(OCC(O)Cn2nc(C)nc2C)cc1 (stereo not drawn),i,0.5%,i,-12%,2.1e-08
O=C(Nc1ccc(N2CCCCC2)cc1)c1cccnc1,i,0.3%,i,-6%,5.7e-09
CCC(C)(C)NC(=O)C(c1cccn1C)N(C(=O)Cn1nnc2ccccc21)c1ccccc1OC (stereo not drawn),i,0.2%,i,?,2.2e-08
COC(=O)c1cc(NC(=O)c2nccnc2C(=O)O)cc(C(=O)OC)c1,.,-1.4%,.,10%,.
Nc1nc(-c2cccnc2)nn1S(=O)(=O)c1ccccc1,i,-0.9%,i,1%,1e-09
CN(Cc1ccco1)c1ncnc2ccc(-c3ccccc3C#N)cc12,i,1.3%,i,?,6.1e-09
Cc1ccc(S(=O)(=O)CCC(=O)c2ccc(O)cc2O)cc1,i,0.1%,i,?,3.1e-09
CCOc1c(CNCCNC(=O)c2nonc2N)cccc1OC,i,1.5%,i,9%,1e-08
COc1ccc(S(=O)(=O)Cc2ccc(C(=O)N3CCC(C(N)=O)CC3)o2)cc1,.,2.0%,.,6%,.
COC(=O)c1cc(OC)c(OC)cc1NC(=O)c1ccco1,i,-1.8%,i,?,5.3e-08
O=C(c1cccc(F)c1)N1CCC2(CC1)CCN(c1ccccn1)CC2,i,1.4%,i,?,1.8e-09
Cc1c(C(=O)N2CCCCC2)oc2ccc(S(=O)(=O)N3CC(C)CC(C)C3)cc12 (stereo not drawn),i,-0.7%,i,?,1.2e-08
Cc1ccc2oc(=O)c3cc(C(=O)N4CCN(C(=O)c5ccco5)CC4)sc3c2c1,.,-0.5%,.,7%,.
Cc1ccc2[nH]c3c(c2c1)CN(C(=O)CN1CCN(Cc2ccc4c(c2)OCO4)CC1)CC3,i,9.9%,i,-6%,6.7e-09
COc1nc(-c2ccc(Cl)cc2)ccc1-c1noc(-c2ccco2)n1,i,1.5%,i,0%,2e-08
N#CCSc1nc2cc(C(=O)N3CCC(C(N)=O)CC3)ccc2c2nc3ccccc3n12,i,-2.0%,i,23%,1e-09
Cc1cc(C)n(-c2cc(-c3ccccc3)nc(C)n2)n1,i,-0.8%,i,.,5.4e-08
O=C(NC1=NCCS1)c1ccc(Cl)s1,i,0.6%,i,-5%,3.3e-08
COc1ccc(-c2noc(CSc3nnc(-c4ccncc4)n3-c3ccc(F)cc3)n2)cc1OC,i,0.5%,i,22%,4.6e-08
O=C(Nc1ccccc1)c1cnc2n(c1=O)CCS2,.,2.9%,.,-4%,.
O=C(CCCn1c(=S)[nH]c2ccccc2c1=O)NCc1ccco1,i,-1.1%,i,4%,1e-09
COC(=O)[C@@]1(Cc2ccccc2)[C@H]2c3cc(C(=O)N4CCCC4)n(CCc4ccccn4)c3C[C@H]2CN1C(=O)c1ccccc1,.,0.2%,.,?,.
O=C(CCNS(=O)(=O)c1ccc(Cl)cc1)N1CCC2(O)CCCCC2C1 (stereo not drawn),i,0.5%,i,-2%,1e-09
Cc1nc2sccn2c1P(c1c(C)nc2sccn12)c1c(C)nc2sccn12,i,-0.7%,i,1%,3.7e-08
Cc1ccc2c(c1)nnn2C1CCN(S(=O)(=O)c2ccc(C(=O)N3C(C)CCCC3C)cc2)CC1 (stereo not drawn),i,3.0%,i,?,4.5e-09
O=C(NCc1ccccc1)c1noc2c1CCCC2,i,-1.1%,i,1%,1e-09
COc1ccc(S(=O)(=O)N2CCN(CC(=O)Nc3ccc(C)c(F)c3)CC2)cc1,i,0.5%,i,?,2.9e-08
C1CCc2nnnn2CC1,i,-0.9%,i,5%[25.6 µM],7.2e-09&6.8e-08
CCOc1cc(C2c3c(n[nH]c3C)C(=O)N2c2ccc(Br)cc2)ccc1O (stereo not drawn),i,-1.5%,i,3%,1.4e-09
Cn1ncc(C#N)c1/N=C/N1CCCCC1,i,0.4%,i,-2%,4.3e-09
Cn1c(C(=O)NCCCN2CCCCCC2)cc2c(=O)n(C)c3ccccc3c21,.,1.2%,.,0%,.
CCOC(=O)CCn1c(=O)c2c(nc(Br)n2Cc2ccccc2)n(C)c1=O,i,1.0%,i,6%,8.2e-09
COc1ccc(S(=O)(=O)c2ccc(OC)c(OC)c2)cc1OC,i,0.3%,i,?,1.8e-08
CN(C(=O)c1ccccc1Cl)c1ccccc1,i,-0.6%,i,13%,1e-09
COCCCN(C)C1CCN(C(=O)Nc2ccc(F)cc2)CC1,.,-2.3%,.,-1%,.
COc1cccc(C(c2nnnn2Cc2ccco2)N2CCN(c3cccc(C)c3C)CC2)c1OC (stereo not drawn),i,1.4%,i,?,4.5e-08
CC(NC(=O)c1ccnc(C(C)(C)C)c1)c1ccccc1 (stereo not drawn),i,-1.3%,i,22%,5.3e-09
CCn1c(Cc2cccn2C)nnc1SCC(=O)c1ccc(C)cc1,i,1.5%,i,23%,1.6e-08
COCCn1c(=O)[nH]c2cc(C(=O)N3CCN(Cc4ccc5c(c4)OCO5)CC3)ccc2c1=O,i,1.5%,i,19%,3.1e-09
CN(C)S(=O)(=O)N1CCc2ccccc21,i,-2.5%,i,3%,4.1e-09
COc1ccc(C)cc1NC(=O)CSc1nnc(-c2cc3cccc(OC)c3o2)n1N,i,-0.5%,i,?,1e-09
CSC(=NCc1cccnc1)NS(=O)(=O)c1cccs1,i,-3.0%,i,0%,1e-09
CN(CCNC(=O)c1ccc(N2CCCC2=O)cc1)CCc1ccccc1,i,-0.9%,i,16%,1e-09
COc1ccc(Nc2oc(COc3ccc(Cl)cc3)nc2C#N)cc1,i,0.8%,i,-5%,1e-09
O=C(Nc1ccc(CN2CCOCC2)cc1)c1cc2ccccc2o1,i,-0.2%,i,10%,5e-08

(more compounds)
SMILES,A488 fluor,AID923,Resorufin fluor,TSHR ag,A647 fluor
C=C(C)COc1ccc(-c2[nH]ncc2Oc2cccc(OC)c2)c(O)c1,i,-4.2%,i,.,6.8e-09
CCOC(=O)c1ccc2c(c1)nc(COc1ccccc1C#N)n2CC,i,-1.4%,i,2%,2.4e-08
Cc1ccc(CSc2nnc(-c3ccco3)n2N)cc1,i,1.0%,i,.,1.4e-08
Cc1cc2ncn(-c3ncnc4sc(C)c(C)c34)c2cc1C,i,-0.3%,i,.,3.4e-08
O=C(C1CC1)N1CCc2cc(S(=O)(=O)N3CCOCC3)ccc21,i,-1.2%,i,7%,1.3e-08
COc1ccc(OC)c(C2OCCC=CC2C)c1 (stereo not drawn),.,1.4%[11.5 µM],.,2%[11.4 µM],.
Cc1ccc(CNC(=O)c2ccc(NS(=O)(=O)c3c(C)noc3C)cc2)cc1,i,-0.2%,i,6%,1e-09
CCN1CCN(CCNC(=O)c2cn(C(C)c3ccccc3F)nn2)CC1 (stereo not drawn),i,-1.0%,i,2%,5.8e-09
Cc1cc(C)nc(Sc2c(C)nn(-c3ccccc3)c2C)n1,i,-0.2%,i,3%,4e-08
CN1CCN([C@@H]2Cc3ccccc3Sc3ccc(Cl)cc32)CC1,i,0.1%,i,?,1e-09
Cc1nnc(C)n1N1C(=O)c2cccc3cccc(c23)C1=O,.,-1.6%,.,-2%,.
O=C(NCCCN1CCOCC1)c1ccc(CNS(=O)(=O)c2ccc(F)cc2)cc1,i,-0.3%,i,-9%,1e-09
COc1ccccc1CNC(=O)C1CC(=O)N(c2ccc(C)c(C)c2)C1 (stereo not drawn),i,-1.1%,i,8%,4.8e-09
O=C(c1ccco1)N1CCCC(c2ccccc2)C1 (stereo not drawn),i,-1.5%,i,6%,1e-09
CC(C)(C)OC(=O)N1CCC(c2c(C(=O)O)cnn2-c2ccccc2)CC1,i,-2.5%,i,0%,1.7e-09
Cc1cccc(-n2c(=O)[nH]c3c(C(N)=O)nc(CC(C)C)nc32)c1,i,2.5%,i,3%[11.4 µM],1e-09
c1coc(-c2nnc3sc(-c4cccs4)nn23)c1,i,.,i,.,1e-09
COc1ccc(OC)c2c(C)cc(N3CCN(C(=O)c4ccc(F)cc4)CC3)nc12,i,-0.6%,i,-13%,2.7e-08
COc1ccc(C2CC(C(F)(F)F)n3nc(C(=O)O)cc3N2)cc1OC (stereo not drawn),i,-2.3%,i,0%,1.5e-08
O=C1c2ccccc2C(=O)N1CCCOc1ccccc1,i,0.7%,i,-3%,1.5e-08

This is a subset; the hit share may differ from the screen's.
